# Screening results from PubChem.
# HCMV UL50-53 inh: inhibitors of HCMV UL50-UL53 nuclear egress complex interaction. HTRF UL50-UL53 interaction, normalized percent inhibition. inhibition, % (no concentration beside the values). 0.15% of 190,000 active. AID 1918969;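 active means both replicates at 50% or more, plus weaker picks with an unusually low signal ratio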;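 further: stock transfer was 100 nL into about 20 µL; 0% = negative control wells and 100% = wells with untagged competitor protein; inactives centre near -12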
# GIV Gai3 FP: inhibitors of GIV GBA-motif binding to rat Galpha-i3; AID 1224905; percent of control (FP), % (concentration not given with the values); 0.42% of 210,000 active; Galpha-i3/FITC-GIV peptide fluorescence polarization, 90 min; hits give low values; scaled: aluminum fluoride 0%, vehicle 100%;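 active means replicate mean at 85% of control or lower, very high polarization wells dropped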;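 further: wells of about 15 µL received 100 nL stock; the first replicate is given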
# Target sequence (P08753 whole entry, looked up): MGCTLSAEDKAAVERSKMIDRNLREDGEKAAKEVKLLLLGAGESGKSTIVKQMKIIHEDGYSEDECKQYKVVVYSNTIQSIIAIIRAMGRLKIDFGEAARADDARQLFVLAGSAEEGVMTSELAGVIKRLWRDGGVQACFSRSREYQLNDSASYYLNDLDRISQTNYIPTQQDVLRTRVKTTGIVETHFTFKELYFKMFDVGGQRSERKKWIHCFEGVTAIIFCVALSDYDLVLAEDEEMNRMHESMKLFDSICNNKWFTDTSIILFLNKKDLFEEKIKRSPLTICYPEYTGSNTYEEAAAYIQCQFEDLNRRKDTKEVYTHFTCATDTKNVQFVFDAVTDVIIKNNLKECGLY
# Sa growth 42C: S. aureus growth inhibition; AID 720641; 0.53% of 170,000 active; relative growth, % (test concentration not listed); S. aureus RN4220 growth, OD600, 20 h, 42 °C; hits give low values;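 active means growth at 42 °C up to 50% and 20 or more points under that at 30 °C, or under 10% at both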;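 further: 300 nL library stock went into each well; scaled to the means of positive and negative controls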
# Sa growth 42C second temp: also measured in Sa growth 42C; calls as there; relative growth, %; measured here: growth at 30 °C;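 optical density after 20 h as mean of two plates; 100% = untreated growth and lower means inhibition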
# Active calls of the source: *; x = not tested or not shown; & = joins results of further samples. An unsorted share of the library; overall some 0.8% were active at least once.
# Below each compound: HCMV UL50-53 inh | GIV Gai3 FP | Sa growth 42C | Sa growth 42C second temp
- CC(=O)Nc1nonc1-c1nnc(SCc2ccccc2)n1C
  -5 | 97 | 93 | 91
- CC(CCc1ccccc1)NC(=O)CSc1n[nH]c(-c2ccc(F)cc2)n1 (stereo not drawn)
  x | 101 | 138 | 89
- CN1CCN(S(=O)(=O)c2ccc(NC(=O)c3ccncc3)cc2)CC1
  9 | 108 | 110 | 96
- COc1ccc(NC(=O)c2nn3c(c2Cl)NC(c2ccc(OC)c(OC)c2)CC3C(F)(F)F)cc1OC (stereo not drawn)
  -18 | 91 | x | x
- COc1ccc(CCNC(=O)c2ccc3c(c2)N(Cc2ccc(F)cc2)CCS3)cc1OC
  13 | 108 | 102 | 106
- CCOC(=O)c1c(-c2ccc(OC)cc2)oc2ccc(OCC)cc12
  -15 | 101 | 73 | 86
- COc1cccc(-n2c(-c3ccco3)nc3c(cnn3-c3ccccc3C)c2=O)c1
  6 | 107 | 103 | 92
- CCN1CCN(Cc2cc(=O)n3[nH]c(-c4ccc(Cl)cc4)nc3n2)CC1
  -8 | 100 | x | x
- O=c1c2n[nH]c(=S)n2ccn1-c1cccc(F)c1
  -27 | 102 | x | x
- CC(C)c1ccc(Nc2cc(C(=O)NCCc3ccccc3)c3ccccc3n2)cc1
  -4 | 105 | 103 | 105

# A different layout for 2 compounds above:
compound	HCMV UL50-53 inh	GIV Gai3 FP	Sa growth 42C	Sa growth 42C second temp
CCN1CCN(Cc2cc(=O)n3[nH]c(-c4ccc(Cl)cc4)nc3n2)CC1	-8	100	x	x
O=c1c2n[nH]c(=S)n2ccn1-c1cccc(F)c1	-27	102	x	x

# (listing goes on)
# Below each compound: HCMV UL50-53 inh | GIV Gai3 FP | Sa growth 42C | Sa growth 42C second temp
- COc1ccc(N2CCN(C(=O)c3cccs3)CC2)cc1
  -3 | 104 | 118 | 90
- O=C(Nc1ccccc1)OC(CN1CCCCC1)C(F)(F)F (stereo not drawn)
  -16 | 96 | x | x
- CC(=O)OCC(=O)CC12CC3CC(CC(C3)C1)C2
  2 | x | 83 | 94
- CC1(C)CC(=O)C=C(NNC(=O)COc2ccccc2)C1
  -21 | 107 | 93 | 92
- CCNc1nc(OC)nc(SCC(=O)OC)n1
  3 | 99 | 103 | 79
- COC(=O)c1sccc1-n1cccc1
  -12&14 | 101&106 | 132 | 87
- O=C(Cn1ncc2c3ccccc3n(Cc3cccc(Cl)c3)c2c1=O)NCCC1=CCCCC1
  -28 | 155 | 118 | 80
- CCOC(=O)CSc1cc(Nc2ccc(Br)cc2)ncn1
  -16 | 125 | 98 | 86
- CCOc1ccc(CN(C)CC(O)COCc2ccc(OC)cc2)cc1OC (stereo not drawn)
  -4 | x | 91 | 94
- Cc1nc(NC(=S)NC(=O)c2ccc(-c3cccc(Cl)c3)o2)ccc1Br
  -7 | 100 | 106 | 93
- CN1CCN(C(=O)c2ccc(CN3C(=O)CSc4ncccc43)cc2)CC1
  2 | 105 | x | x
- Cc1cc(NC(=O)Nc2c(C)n(C)n(-c3ccccc3)c2=O)ccc1Br
  -1 | 105 | x | x
- Cc1cc(=O)[nH]c(SCC2COC3(CCCCC3)O2)n1 (stereo not drawn)
  x | 97 | 91 | 92
- Cc1ccc(NC(=O)c2c(-n3c(C)ccc3C)sc3c2CCCC3)cc1
  x | 101 | 90 | 73
- Cc1c(C)c2ccc(OCC(N)=O)cc2oc1=O
  -20 | x | 105 | 87
- CCC(C(=O)NCCc1cc(OC)ccc1OC)n1nc(C)c2c(C)n(-c3ccccc3)nc2c1=O (stereo not drawn)
  x | 101 | 106 | 85
- CCn1c(=O)cc(OCC(=O)N(C)c2cc(Cl)ccc2C)c2ccccc21
  2 | 106 | 111 | 80
- COC(=O)c1cnn(-c2ccc(Cl)cc2)c1C=Nc1ccc(C)cc1
  -8 | 105 | 93 | 102
- O=C1/C(=C/C=C/c2ccco2)SC(=S)N1C1CCCCC1
  -27 | 149 | 56 | 22
- COC(=O)N1N=C(C2CCCCC2)CC1(O)C(F)(F)F (stereo not drawn)
  5 | 95 | 107 | 98
- CCCC(=O)NCCc1cn2ccc(C)cc2n1
  -20 | 101 | 100 | 88
- Cc1cc(C)nc(N=Nc2cc(C(C)(C)C)c(O)c(C(C)(C)C)c2)n1
  -8 | 101 | 122 | 123
- CN(Cc1ccccc1)S(=O)(=O)c1ccc(NC(=O)c2nc(S(C)(=O)=O)ncc2Cl)cc1
  x | 100 | 6.2* | 6.9*
- Cc1cc(OCC(=O)NCC2(N(C)C)CCCCC2)cc(C)c1Cl
  -8 | 104 | 107 | 89
- CC(C)CCSc1nc(N)c2c3c(sc2n1)CCCC3C (stereo not drawn)
  x | 101 | 103 | 106
- CCCN(CCC)CCNC(=O)c1cc2c(-c3ccccc3F)nn(C)c2s1
  -29 | 101 | 101 | 86
- CCc1noc(-c2ccc(NC(=O)C3CC(=O)N(Cc4ccccc4)C3)cc2)n1 (stereo not drawn)
  -26 | 109 | x | x
- Cc1ccc(Nc2ncnc3ccc(Br)cc23)cc1C
  -2 | 102 | x | x
- CCn1c(SCc2cc(=O)n3ccsc3n2)nnc1-c1cccs1
  -9 | x | 87 | 94
- Cn1cc(S(=O)(=O)c2cccc(Cl)c2)c(=O)c2cc(F)c(N3CCN(c4ccccc4)CC3)cc21
  x | 109 | 71 | 85
- O=C(N(c1ccccc1)C1C=CS(=O)(=O)C1)C12CC3CC(CC(C3)C1)C2 (stereo not drawn)
  x | 101 | 106 | 84
- COc1ccc(OCC(=O)NCCSc2ccccn2)cc1
  -16 | 102 | 82 | 81
- Cc1ccc(S(=O)(=O)N2CC=C(c3c(C)n(CC(=O)N4CCCC4)c4ccccc34)CC2)cc1C
  -4 | 112 | 118 | 88
- CCc1nn(C)c2c(=O)c(=O)c2n(C)[nH]1
  -22 | 91 | 116 | 87
- O=C1/C(=C/c2ccc(F)cc2F)Sc2ccccc21
  -23 | 110 | x | x
- CC(C)NC(=O)CN1C(=O)C(C)(C)c2cc(S(=O)(=O)N3CCCCC3)ccc21
  -17 | 106 | x | x
- COc1ccc(C(=O)Nc2ccc3oc(-c4ccccc4Cl)nc3c2)cc1[N+](=O)[O-]
  0 | 102 | x | x
- CC1CCN(CCCNC(=O)C2CC(=O)N(CCc3ccccc3)C2)CC1 (stereo not drawn)
  x | 98 | 105 | 80
- Cc1cccc(N2CCN(c3nc4ccccc4n4nnnc34)CC2)c1C
  -8 | 104 | 121 | 85
- COc1ccccc1NC(=O)C1=C(C)Nc2nc(SCc3ccccc3Cl)nn2C1c1ccccn1 (stereo not drawn)
  19 | 101 | 108 | 99
- O=C(O)CN1CCCCC1
  8 | 101 | 97 | 95
- CCN1C(=O)CC(C(=O)Nc2ccccc2)SC1=Nc1ccccc1 (stereo not drawn)
  x | 100 | 103 | 89
- CCOC(=O)N1CCC(NS(=O)(=O)c2cccs2)CC1
  -23 | 102 | 89 | 90
- O=C1COc2cc(S(=O)(=O)N3CCCC(C(=O)N4CCCC4)C3)c(Cl)cc2N1 (stereo not drawn)
  -8 | 101 | x | x
- O=S1(=O)CCN(C2CCCCCC2)CC1
  1 | 104 | x | x
- N#Cc1c2ncnc(-c3ccc(Cl)cc3)c2n2ccccc12
  x | 99 | 95 | 88
- CSc1ccc(CCNC(=O)Cn2c(C)c3cnn(-c4ccccc4)c(=O)c3c2C)cc1
  -21 | 105 | 108 | 87
- O=C1N=c2ccccc2=C1N=Nc1c(O)[nH]c2ccccc12
  -42 | 57* | 38 | 15
- COc1cc(Nc2ncc3c(n2)CCN(S(=O)(=O)c2ccccc2C)C3)cc(OC)c1
  -14 | 109 | x | x
- O=C(NCc1ccc(F)cc1)C1CCN(C(=O)c2ccc(-n3ccc4ccccc43)s2)CC1
  x | 104 | 126 | 90

# Following part.
# Below each compound: HCMV UL50-53 inh | GIV Gai3 FP | Sa growth 42C | Sa growth 42C second temp
- CCCNC1=C(c2ccc(OC)cc2)C(=O)c2ccccc21
  -19 | 106 | 102 | 88
- Cc1ccc(C)c(N2CCN(C(c3ccccc3)c3nnc(-c4ccccc4F)o3)CC2)c1 (stereo not drawn)
  -5 | 106 | 101 | 88
- C#CCSc1nc2c(c(=O)[nH]1)C(c1ccccc1)CC(=O)N2 (stereo not drawn)
  -4 | 104 | 99 | 59
- COc1ccc(OC)c(S(=O)(=O)N2CCN=C2N2CCN(c3ccccc3F)CC2)c1
  -21 | 107 | x | x
- O=C(O)CCC(=O)N1N=C(c2ccc(Br)cc2)CC1c1cccc([N+](=O)[O-])c1 (stereo not drawn)
  -81 | 100 | x | x
- COc1ccccc1NC(=O)C1Sc2nnc(-c3ccccc3)n2NC12CCCCC2 (stereo not drawn)
  -9 | 102 | 89 | 88
- C(=NN1CCN(Cc2ccccc2)CC1)c1ccccc1
  -2 | 110 | 103 | 93
- O=C(NC(=O)N1CCN(c2ccc(F)cc2)CC1)c1ccccc1
  -4 | 103 | 117 | 99
- Cc1oc2ncn(CC(C)C)c(=O)c2c1C(=O)NCCCN(C)Cc1ccccc1
  x | 113 | 104 | 89
- O=C(NC(=O)c1ccccc1C(F)(F)F)NN1CCOCC1
  -22 | 103 | 94 | 90
- O=c1cc(-c2ccccc2)n2c(SCc3ccc(Cl)cc3)nnc2[nH]1
  x | 100 | 104 | 95
- CN1C(=O)C2(c3ccccc31)N(c1ccccc1)C(=O)CS2(=O)=O (stereo not drawn)
  x | 101 | 85 | 86
- CCN(CC)c1nc2ccccc2nc1C(=O)Nc1ccc(C(C)=O)cc1
  x | 102 | 93 | 97
- O=C(NCc1ccccc1)C1C2C=CC3(CN(Cc4ccccc4Cl)C(=O)C13)O2 (stereo not drawn)
  -15 | 98 | 105 | 91
- N#C/C(=N\Nc1cccc(F)c1)C(=N)N1CCCCC1
  -20 | 101 | 98 | 91
- CCSc1nc2ccccc2n1C(=O)c1ccc(Cl)cc1
  x | 108 | 74 | 95
- O=C(Nc1ccccc1Br)C(Cc1ccccc1)NS(=O)(=O)c1cccc2nsnc12 (stereo not drawn)
  -56 | 108 | 113 | 84
- COC(=O)c1ccccc1NC(=O)N(Cc1ccc(C)cc1)Cc1cccn1-c1nnc(N2CCCC2=O)s1
  17 | 98 | 108 | 99
- CCc1cc2c(=O)c(-c3nncn3-c3ccccc3)coc2cc1O
  11 | x | 136 | 99
- CSc1cccc(NC(=O)c2cnccn2)c1
  -11 | 105 | 87 | 83
- Cc1ccc(N2CCN(C(=O)c3cn(C)c4ccc(S(=O)(=O)N5CCC(C)CC5)cc4c3=O)CC2C)cc1 (stereo not drawn)
  10 | 108 | 98 | 99
- Cc1noc(/C=C/N(C)C)c1S(=O)(=O)NCCN1CCC(Cc2ccccc2)CC1
  x | 108 | 86 | 88
- O=C(COC(=O)CCC1CCCC1)NC1CCCCCC1
  -32 | x | 76 | 93
- N#CCC(=O)NCc1ccccn1
  10 | 97 | 104 | 100

# By substructure, those above containing fluorine
# Below each compound: HCMV UL50-53 inh | GIV Gai3 FP | Sa growth 42C | Sa growth 42C second temp
- CC(CCc1ccccc1)NC(=O)CSc1n[nH]c(-c2ccc(F)cc2)n1 (stereo not drawn)
  x | 101 | 138 | 89
- COc1ccc(NC(=O)c2nn3c(c2Cl)NC(c2ccc(OC)c(OC)c2)CC3C(F)(F)F)cc1OC (stereo not drawn)
  -18 | 91 | x | x
- COc1ccc(CCNC(=O)c2ccc3c(c2)N(Cc2ccc(F)cc2)CCS3)cc1OC
  13 | 108 | 102 | 106
- O=c1c2n[nH]c(=S)n2ccn1-c1cccc(F)c1
  -27 | 102 | x | x
- O=C(Nc1ccccc1)OC(CN1CCCCC1)C(F)(F)F (stereo not drawn)
  -16 | 96 | x | x
- COC(=O)N1N=C(C2CCCCC2)CC1(O)C(F)(F)F (stereo not drawn)
  5 | 95 | 107 | 98
- CCCN(CCC)CCNC(=O)c1cc2c(-c3ccccc3F)nn(C)c2s1
  -29 | 101 | 101 | 86
- Cn1cc(S(=O)(=O)c2cccc(Cl)c2)c(=O)c2cc(F)c(N3CCN(c4ccccc4)CC3)cc21
  x | 109 | 71 | 85
- O=C1/C(=C/c2ccc(F)cc2F)Sc2ccccc21
  -23 | 110 | x | x
- O=C(NCc1ccc(F)cc1)C1CCN(C(=O)c2ccc(-n3ccc4ccccc43)s2)CC1
  x | 104 | 126 | 90
- Cc1ccc(C)c(N2CCN(C(c3ccccc3)c3nnc(-c4ccccc4F)o3)CC2)c1 (stereo not drawn)
  -5 | 106 | 101 | 88
- COc1ccc(OC)c(S(=O)(=O)N2CCN=C2N2CCN(c3ccccc3F)CC2)c1
  -21 | 107 | x | x
- O=C(NC(=O)N1CCN(c2ccc(F)cc2)CC1)c1ccccc1
  -4 | 103 | 117 | 99
- O=C(NC(=O)c1ccccc1C(F)(F)F)NN1CCOCC1
  -22 | 103 | 94 | 90
- N#C/C(=N\Nc1cccc(F)c1)C(=N)N1CCCCC1
  -20 | 101 | 98 | 91
